# rRNA inh HTS: inhibitors of bacterial rRNA selective over humanized ribosomes | E. coli WT GFP vs humanized-ribosome RFP mutants, fluorescence, 24 h; hits give low values; DMSO median 0, no signal -100 | 1.6% of 350,000 active | GFP signal change (wild-type ribosome), % (test concentration not listed);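 active means significant combined selectivity score with lowered wild-type GFP, culture density cut under 30%, mutant RFP and density less affected; inactive means any of these conditions unmet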; further: one replicate is shown; some compounds called inactive have numbers as strong as hits
# rRNA inh HTS OD600: recorded beside rRNA inh HTS, whose call it bears; OD600 change, %; measured here: OD600 growth;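 optical density of the mix in the first replicate; 0 = DMSO median and -100 = no signal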
# rRNA inh HTS RFP: recorded beside rRNA inh HTS, whose call it bears; RFP signal change, %; measured here: RFP humanized mutant strains;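 first replicate; 0 = DMSO median and -100 = no signal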
# The depositor's hits bear a star; & = joins results of further samples. Some of the compounds tested (hit frequency here may not be typical).
SMILES,rRNA inh HTS,rRNA inh HTS OD600,rRNA inh HTS RFP
Cc1ccc(S(=O)(=O)N(C)C[C@@H]2OCCCC[C@H](C)Oc3ccc(NC(=O)Cc4ccccc4)cc3C(=O)N([C@H](C)CO)C[C@H]2C)cc1,0,6,0.9
O=C1c2ccccc2C(c2nnnn2-c2ccc3c(c2)OCCO3)N1Cc1ccc(F)cc1 (stereo unspecified),-9,-6,-0.7
O=C(C[C@@H]1CC[C@@H]2[C@H](COC[C@@H](O)CN2S(=O)(=O)c2cccc(Cl)c2)O1)N1CCOCC1,-3,3,-5.2
COc1ccc(CN(C)C[C@@H]2Oc3c(NC(=O)C4CC4)cccc3C(=O)N([C@H](C)CO)C[C@H]2C)cc1,-8,-18,-0.4
C[C@H](CO)N1C[C@H](C)[C@H](CN(C)CC2CCOCC2)Oc2ncc(Br)cc2C1=O,0,4,-3.2
CC(=NNC(N)=O)C1CC2CCC1CC2 (stereo unspecified),5,11,-0.8
CCCNC(=O)[C@@H]1[C@@H](CO)[C@@H]2Cn3c(ccc(C4=CCCC4)c3=O)[C@H]1N2C(=O)CC1CC1,0,1,0.4
Cc1noc(C)c1S(=O)(=O)Nc1ccc2c(c1)C(=O)N([C@@H](C)CO)C[C@@H](C)[C@H](CN(C)C(=O)Nc1ccc(F)cc1)OCCCC[C@H](C)O2,-4,-5,-1.2
COc1ccc(-c2ccc([C@H]3[C@H](C#N)N[C@H]3CO)cc2)cc1,-5,-7,-1.9
CNC[C@@H]1OCCCC[C@@H](C)Oc2ccc(NS(C)(=O)=O)cc2C(=O)N([C@H](C)CO)C[C@@H]1C,1,2,-2.1
C[C@H](CO)N1C[C@H](C)[C@H](CN(C)C(=O)Nc2cccc(Oc3ccccn3)c2)OCc2cnnn2CCCC1=O,0&1,14&2,-0.1&-2.0
O=C(C[C@H]1C[C@H]2c3cc(NS(=O)(=O)c4ccc(F)cc4)ccc3O[C@H]2[C@@H](CO)O1)NC1CCCC1,-3,-6,0.2
C[C@@H]1CN([C@@H](C)CO)C(=O)Cc2cc(NC(=O)Nc3ccc(F)cc3)ccc2O[C@@H]1CN(C)C(=O)Nc1ccccc1,4,-6,0.2
CCCNC(=O)C[C@H]1C[C@H]2c3cc(NC(=O)CN(C)C)ccc3O[C@H]2[C@@H](CO)O1,-2,-3,-4.7
Cc1ccccc1-c1cnc2c(c1)C(=O)N([C@H](C)CO)C[C@H](C)[C@@H](CN(C)CC1CCOCC1)O2,-4,-6,-3.6
C/C=C/c1ccc([C@H]2[C@@H](CN(C)C(C)=O)N(C(=O)NC(C)C)[C@H]2CO)cc1,1,4,-2.5
C[C@H](CO)N1C[C@H](C)[C@@H](CN(C)C(=O)Nc2ccc(F)cc2)Oc2ccc(NC(=O)Cc3cn(C)c4ccccc34)cc2CC1=O,3,6,-1.7
COc1ccccc1-c1cn(CC[C@@H]2CC[C@@H](NS(=O)(=O)c3ccccc3C)[C@H](CO)O2)nn1,-5,-20,2.0
O=C(N[C@@H]1CC[C@@H](CCn2cc(C3(O)CCCC3)nn2)O[C@@H]1CO)C1CC1,0,5,-2.7
CC(C)NC(=O)N(C)C[C@@H]1Oc2ncc(C#Cc3ccc(F)cc3)cc2C(=O)N([C@H](C)CO)C[C@H]1C,-4,-5,-0.3
Cc1c(C(=O)NCc2cccc([N+](=O)[O-])c2)sc(=O)n1Cc1ccc(C(C)C)cc1,8,-1,6.3
COc1ccc(S(=O)(=O)Nc2ccc3c(c2)C(=O)N([C@@H](C)CO)C[C@@H](C)[C@H](CN(C)C(=O)NC(C)C)OCCCC[C@@H](C)O3)cc1,2,5,-0.5
COc1ccc(S(=O)(=O)Nc2ccc3c(c2)C(=O)N([C@@H](C)CO)C[C@H](C)[C@H](CN(C)C(=O)C2CCCCC2)OCCCC[C@H](C)O3)cc1,-4,-2,4.9
Cc1cn([C@H]2C[C@H](O)[C@@H](/C=C/C(=O)NCCCc3ccccc3)O2)c(=O)[nH]c1=O,1,10,-1.4
C[C@@H]1CN([C@H](C)CO)C(=O)Cc2cc(NC(=O)Cc3ccccc3)ccc2O[C@@H]1CN(C)C(=O)Nc1cccc2ccccc12,-2,-14,-0.2
SMILES,rRNA inh HTS,rRNA inh HTS OD600,rRNA inh HTS RFP
C[C@@H]1CCCCO[C@H](CN(C)C(=O)NC2CCCCC2)[C@H](C)CN([C@@H](C)CO)C(=O)c2cc(NC(=O)Nc3ccc(C(F)(F)F)cc3)ccc2O1,5,7,-2.1
COc1ccc(NC(=O)N(C)C[C@H]2Oc3cc(-c4cccc(C(=O)N(C)C)c4)ccc3S(=O)(=O)N([C@@H](C)CO)C[C@H]2C)cc1,-4,-13,0.2
C[C@@H]1CN([C@H](C)CO)C(=O)CCCn2cc(nn2)CO[C@H]1CN(C)C(=O)Nc1ccc(C(C)(C)C)cc1,-1&-1,0&-2,-1.3&-3.4
CCOC1=C2[C@@H](CN(S(=O)(=O)c3ccc(C)cc3)[C@H]2c2cccc3ccccc23)[C@H]2C(=O)N(Cc3ccccc3)C(=O)[C@H]2C1,2,13,2.5
Cc1noc(C)c1NC(=O)NCC[C@H]1CC[C@@H](NC(=O)Cc2cccnc2)[C@@H](CO)O1,1,4,1.5
C[C@H](CO)N1C[C@H](C)[C@H](CN(C)S(=O)(=O)c2ccc(F)cc2)OCCCC[C@H](C)Oc2ccc(NC(=O)NC3CCCCC3)cc2C1=O,3,-5,2.3
O=C(N[C@@H]1CC[C@@H](CCn2cc(C3(O)CCCC3)nn2)O[C@@H]1CO)C1CCCC1,3,2,0.3
CO[C@@H]1CN(C)C(=O)c2cc(NS(=O)(=O)c3cccc(Cl)c3)ccc2OC[C@@H](C)N(C(=O)Cc2cccnc2)C[C@H]1C,-2,-4,5.1
COC(=O)C[C@H]1C[C@@H]2c3cc(NC(=O)Nc4ccccc4F)ccc3O[C@@H]2[C@H](CO)O1,-3,-3,-2.4
COC(=O)[C@@H]1[C@@H](CO)[C@@H]2Cn3c(ccc(-c4ccc(F)cc4)c3=O)[C@@H]2N1S(C)(=O)=O,1,3,-1.7
C[C@H](NC(=O)C[C@@H]1CC[C@@H]2[C@H](COC[C@H](O)CN2C)O1)c1ccccc1,4,-1,-0.6
O=C(C[C@@H]1CC[C@@H](NC(=O)c2ccncc2)[C@H](CO)O1)NCC1CC1,0,2,-0.7
Cc1ccc(S(=O)(=O)N2C[C@H]3C(=O)C[C@@H](c4ccccc4)N(S(=O)(=O)c4ccc(Br)cc4)[C@H]3C[C@H]2c2ccccc2)cc1,-1,20,-1.4
O=C(C[C@H]1C=C[C@@H](NS(=O)(=O)c2ccccc2)[C@@H](CO)O1)NCc1ccccc1F,-1,-1,-1.3
COc1ccc(S(=O)(=O)N(C)C[C@H]2Oc3ncc(-c4ccncc4)cc3C(=O)N([C@H](C)CO)C[C@H]2C)cc1,-6,-8,-0.6
C=CCN1C(=O)c2n[nH]c(COC)c2C1c1ccc(C)cc1 (stereo unspecified),-2,-2,-2.6
COc1ccc(-c2ccccc2[C@@H]2[C@@H](C#N)N(C(=O)c3cccnc3)[C@@H]2CO)cc1,-2,1,2.8
O=C(Nc1ccc(F)cc1)N1[C@@H]2CNc3ccccc3[C@@H]2[C@@H]1CO,-8,-12,-0.5
Cc1ccc(S(=O)(=O)NNc2c3ccccc3nc3ccc(Cl)cc23)cc1,10,11,2.0
CCC(=O)N1CC2(CCN(C(=O)Nc3ccc(F)cc3)CC2)c2c([nH]c3cc(OC)ccc23)[C@H]1CO,-6,-15,2.5
CC(C)NC(=O)N(C)C[C@@H]1Oc2ccc(NC(=O)CCC(F)(F)F)cc2CC(=O)N([C@@H](C)CO)C[C@H]1C,5,2,-0.5
COc1cccc(OCc2ccc(Cn3nc(NC(=O)NCCc4ccc(OC)c(OC)c4)c4ccccc43)cc2)c1,21,22,5.4
Cc1cn([C@H]2C[C@H](O)[C@@H](CNCc3ccc(Oc4cc(-n5cccn5)ncn4)cc3)O2)c(=O)[nH]c1=O,-3,1,-0.6
O=C(C[C@@H]1CC[C@@H]2[C@H](COC[C@@H](O)CN2Cc2ccccc2)O1)N[C@H]1CCN(Cc2ccccc2)C1,-2,-7,0.5
C[C@H](CO)N1C[C@H](C)[C@H](CN(C)S(=O)(=O)c2ccc(F)cc2)OCc2cn(nn2)CCCC1=O,-1,2,0.3

# Structural class: the compounds so far containing a cyano group.
SMILES,rRNA inh HTS,rRNA inh HTS OD600,rRNA inh HTS RFP
COc1ccc(-c2ccc([C@H]3[C@H](C#N)N[C@H]3CO)cc2)cc1,-5,-7,-1.9
COc1ccc(-c2ccccc2[C@@H]2[C@@H](C#N)N(C(=O)c3cccnc3)[C@@H]2CO)cc1,-2,1,2.8

# (listing goes on)
SMILES,rRNA inh HTS,rRNA inh HTS OD600,rRNA inh HTS RFP
CCC(=O)N1[C@H](CO)[C@@H](c2ccccc2)[C@@H]1CN(C)C(=O)c1ccccc1F,3,9,-1.0
C[C@H](CO)N1C[C@H](C)[C@H](CN(C)S(=O)(=O)c2ccc3ccccc3c2)OCc2cnnn2CCCC1=O,0&-1,0&-6,0.6&3.6
COCC(=O)N1[C@@H](C#N)[C@H](c2ccccc2-c2cccc(F)c2)[C@@H]1CO,0,8,2.2
C[C@H](CO)N1C[C@H](C)[C@@H](CN(C)S(=O)(=O)c2ccccc2)Oc2c(NC(=O)Nc3ccc(F)cc3)cccc2C1=O,-5,-28,-5.7
CC(=O)Nc1cccc(-c2ccnc3c2CC(C(=O)NCCC(F)(F)F)O3)c1 (stereo unspecified),-1,-4,-4.4
NS(=O)(=O)c1ccc(CCNc2nn3c(-c4cccc(OC(F)(F)F)c4)cnc3s2)cc1,-16,-25,7.7
O=C(C[C@@H]1CC[C@H](NS(=O)(=O)c2ccc(F)cc2)[C@@H](CO)O1)NC1CCCCC1,-1,-2,0.0
CCCNC(=O)c1cc(C2CCCN(C(=O)c3cc(C(C)(C)C)nn3C)C2)on1 (stereo unspecified),9,6,0.8
CC=Cc1ccc2n(c1=O)C[C@H]1[C@H](CO)[C@@H](C(=O)NCC(F)(F)F)[C@@H]2N1C(C)=O (mixture of isomers),3,3,0.1
CCCNC(=O)N1[C@@H](CO)[C@@H](c2ccccc2)[C@@H]1CNC(=O)c1cccc(F)c1,-10,-6,-0.5
C[C@@H]1CN([C@H](C)CO)C(=O)c2cc(NC(=O)CCCN(C)C)ccc2O[C@@H](C)CCCCO[C@H]1CN(C)C(=O)NC1CCCCC1,2,-4,-1.4
COc1ccc2c3c([nH]c2c1)[C@H](CO)N(C(=O)c1cnccn1)CC31CCN(C(=O)c2cnccn2)CC1,5,11,-5.5
COc1ccc(S(=O)(=O)N(C)C[C@@H]2OCCCC[C@@H](C)Oc3ccc(NS(=O)(=O)c4c(C)noc4C)cc3C(=O)N([C@@H](C)CO)C[C@@H]2C)cc1,2,3,-3.5
C[C@@H]1CN([C@@H](C)CO)S(=O)(=O)c2ccc(C#Cc3ccccc3F)cc2O[C@@H]1CN(C)C,4,16,-1.7
C[C@@H]1CN([C@H](C)CO)C(=O)c2cc(NC(=O)Nc3ccc(C(F)(F)F)cc3)ccc2O[C@H]1CN(C)C(=O)Nc1ccccc1,-8,-9,0.3
O=C(NCc1ccccc1Cl)c1[nH]c(C(F)(F)F)nc1-c1ccccc1,-65,-78,-22
C/C=C/c1ccc(C2[C@H]3CNC[C@@H]2N3Cc2cccc(F)c2)cc1 (stereo partly specified),5&1,5&19,2.4&4.2
CN1C(=O)c2cc(NS(=O)(=O)c3ccc(F)cc3)ccc2OC[C@H]2O[C@@H](CC(=O)Nc3cccc4ccccc34)CC[C@@H]21,1,-19,-0.9
C[C@@H]1CCCCO[C@@H](CN(C)S(=O)(=O)c2ccc(F)cc2)[C@@H](C)CN([C@@H](C)CO)C(=O)c2cc(NS(C)(=O)=O)ccc2O1,-2,-4,-4.9
C[C@H]1CN([C@@H](C)CO)C(=O)Cc2cc(NC(=O)Nc3cccc4ccccc34)ccc2O[C@@H]1CN(C)Cc1ccc(C(=O)Nc2ccccc2N)cc1,0,-2,-2.2
Cc1noc(C)c1NC(=O)N(C)C[C@H]1Oc2ncc(C3=CCCC3)cc2C(=O)N([C@@H](C)CO)C[C@H]1C,13,9,-2.9
CN1C(=O)c2cc(NS(=O)(=O)c3ccc(F)cc3)ccc2OC[C@H]2O[C@H](CC(=O)NCC(F)(F)F)CC[C@H]21,-3,0,0.7
Cc1ccc(-c2ccc3c(c2)O[C@H](CN(C)Cc2cccnc2)[C@@H](C)CN([C@@H](C)CO)S3(=O)=O)cc1,-17,-19,13
C[C@@H]1CN([C@H](C)CO)C(=O)c2cc(NC(=O)Nc3cccc4ccccc34)ccc2O[C@@H]1CN(C)C(=O)Nc1cccc2ccccc12,0,11,1.5
O=C(O)C1CC(Br)C(Br)CC1C(=O)O (stereo unspecified),5,14,-3.6

# Some of these compounds in order of formula weight, descending.
SMILES,rRNA inh HTS,rRNA inh HTS OD600,rRNA inh HTS RFP
COc1ccc(S(=O)(=O)N(C)C[C@@H]2OCCCC[C@@H](C)Oc3ccc(NS(=O)(=O)c4c(C)noc4C)cc3C(=O)N([C@@H](C)CO)C[C@@H]2C)cc1,2,3,-3.5
C[C@@H]1CN([C@H](C)CO)C(=O)c2cc(NC(=O)Nc3cccc4ccccc34)ccc2O[C@@H]1CN(C)C(=O)Nc1cccc2ccccc12,0,11,1.5
C[C@H](CO)N1C[C@H](C)[C@@H](CN(C)S(=O)(=O)c2ccccc2)Oc2c(NC(=O)Nc3ccc(F)cc3)cccc2C1=O,-5,-28,-5.7
NS(=O)(=O)c1ccc(CCNc2nn3c(-c4cccc(OC(F)(F)F)c4)cnc3s2)cc1,-16,-25,7.7
C[C@@H]1CN([C@@H](C)CO)S(=O)(=O)c2ccc(C#Cc3ccccc3F)cc2O[C@@H]1CN(C)C,4,16,-1.7
O=C(NCc1ccccc1Cl)c1[nH]c(C(F)(F)F)nc1-c1ccccc1,-65,-78,-22
COCC(=O)N1[C@@H](C#N)[C@H](c2ccccc2-c2cccc(F)c2)[C@@H]1CO,0,8,2.2

# Assay outcomes deposited in PubChem BioAssay by Broad Institute.
